Screening data from PubChem.
VDR inhibitor: inhibitors of human vitamin D receptor | P11473 | VDR-SRC2-3 peptide fluorescence polarization, 2 h | Potency, µM, without a hit: max response, negative = inhibition, hits mostly inhibitors | actives 0.93% (n = 400,000) | AID 504847; active = well fitted inhibition curve with a large enough effect; inconclusive = small, poorly fitted or top-dose-only effect, or another doubt; inactive = no such curve, though single readings can be large or run the other way; also: series mostly up to about 120 µM
Target sequence (P11473 whole entry, looked up): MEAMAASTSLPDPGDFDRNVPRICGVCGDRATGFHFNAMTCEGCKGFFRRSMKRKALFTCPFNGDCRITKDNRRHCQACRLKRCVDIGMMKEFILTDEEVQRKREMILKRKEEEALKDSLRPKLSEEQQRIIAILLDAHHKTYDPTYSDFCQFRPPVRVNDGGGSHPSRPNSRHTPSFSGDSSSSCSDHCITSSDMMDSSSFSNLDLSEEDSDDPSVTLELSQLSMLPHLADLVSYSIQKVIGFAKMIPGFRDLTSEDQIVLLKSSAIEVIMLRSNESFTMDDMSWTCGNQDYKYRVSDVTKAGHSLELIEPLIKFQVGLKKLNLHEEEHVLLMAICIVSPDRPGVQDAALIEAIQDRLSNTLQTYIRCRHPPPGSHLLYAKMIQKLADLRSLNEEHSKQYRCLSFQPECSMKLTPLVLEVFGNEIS
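Inhibition of the VDR/SRC2-3 peptide interaction is quantified by fluorescence polarization. Compounds (23 nl, pintool) incubate with the reagents for 2 hours at ambient room temperature.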
* marks the source's active call; other numbers are inactive results; u = inconclusive; & = joins results of further samples. % is scaled to controls: 0 for no effect and ±100 for the full control effect; potency is read from the fitted curve at half-maximal effect. Only part of the results is shown. The share of hits here may be higher or lower than overall.

No.	VDR inhibitor	structure
1	-10.7%	CCC(C)NC(=O)[C@H](CSCc1ccccc1)N1Cc2ccccc2C1=O (stereo partly specified)
2	0.9%	COc1ccc(N(CC(=O)NC2CCCC2)C(=O)c2ccc(C)s2)c(OC)c1
3	-7.5%	O=C(NNC(=O)c1ccccc1[N+](=O)[O-])c1cccs1
4	-9.6%	COC(=O)c1ccc(NC(=O)COc2ccc(N(C)S(=O)(=O)c3ccc(C)cc3)cc2)cc1
5	-0.5%	COC(=O)c1cccc(OCC(O)Cn2ccnc2)c1 (stereo unspecified)
6	10.0%	COCCNC(=O)c1cc(C)ccc1C
7	-8.5%	CCCSc1nnc(NC(=O)Nc2ccccc2OC)s1
8	12.3%	O=C(c1csc2c1CCCC2)N1CCN(c2ccc(F)cc2)CC1
9	-9.3%	COc1ccccc1CN1CCNC(=O)C1CC(=O)NCc1cn(C)nc1C (stereo unspecified)
10	10.1%	Cc1cccc2sc(NC(=O)CSc3nc4ccccc4o3)nc12
11	-25.5%	CCCCOc1cccc(NC(=O)c2cccc(C(=O)Nc3cccc(OCCCC)c3)c2)c1
12	-13.6%	O=C(NCCNc1ccccc1[N+](=O)[O-])c1ccccc1F
13	-15.8%	C/C(=N\Nc1nc2ccccc2c(=O)n1O)c1ccco1
14	-4.7%	Cc1ccc(S(=O)(=O)N2CCC(=O)CC2c2ccccc2)cc1 (stereo unspecified)
15	-20.8%	CN(Cc1nc2ccccc2c(=O)[nH]1)C(=O)c1cc(C2CC2)nn1-c1ccccc1
16	-6.9%	COc1ccc(C)cc1NC(=O)NCc1ccco1
17	-7.0%	O=C(C1=C[C@@H](c2csc3ccccc23)C[C@@H](OCCCCO)O1)N1CCN(Cc2ccc3c(c2)OCO3)CC1
18	-4.0%	O=S(=O)(c1cccc(-c2n[nH]c(=S)n2C2CCCC2)c1)N1CCOCC1
19	11.1%	CC(=O)NC(=S)Nc1ccc2oc(-c3cc(F)c(F)cc3Cl)nc2c1
20	-10.6%	COc1ccc(C(=O)COC(=O)c2n[nH]c3ccccc23)c(OC)c1
21	13.1%	COc1cc(C(=O)NN(CCC#N)C2=NS(=O)(=O)c3ccccc32)cc(OC)c1OC
22	4.7%	COc1ccc(NC(=O)c2cc(S(=O)(=O)N3CCOCC3)ccc2C)cc1S(=O)(=O)N1CCCCC1
23	9.9%	COc1ccc(S(=O)(=O)N2CCOCC2)cc1NC(=O)COc1ncnc2ccccc12
24	-4.2%	Cc1cc(C)n(-c2ccc(C(F)(F)F)cc2[N+](=O)[O-])n1
25	10.8%	Cc1ccc(NC(=O)c2nc[nH]c2C(=O)N[C@@H](CCCCNC(=O)OC(C)(C)C)C(=O)OC(C)(C)C)cc1
26	-6.7%	COc1ccccc1NC(=O)CNC(c1ccccc1)c1ccccc1
27	-15.7%	CC(C)Oc1ccc(CCN=C(N)N=C(N)N)cc1Cl
28	20.4%	CC(=O)c1cccc(S(=O)(=O)NCC(c2ccco2)N2CCCCC2)c1 (stereo unspecified)
29	-2.9%	CC1CCCC(C)N1C(=O)COC(=O)c1ccc[nH]c1=O (stereo unspecified)
30	4.5%	CCN1CCN(c2ccc(S(=O)(=O)N3CCOCC3)cc2NC(=O)/C=C/c2ccc([N+](=O)[O-])cc2)CC1
31	-2.9%	COc1ccc(OC)c(C2NC(=O)NC(C)=C2C(=O)OCc2ccccc2)c1 (stereo unspecified)
32	-2.3%	O=C(COC(=O)c1cc(=O)c2ccccc2o1)NCC1CCCCC1
33	-13.7%	Cc1cccc(C(=O)N2CCC(=O)N(C(COCc3ccc(Cl)cc3)Cc3ccccc3)CC2)c1 (stereo unspecified)
34	-10.9%	CCOc1cc(C(=O)Nc2ccc(S(=O)(=O)NC3=NCCCCC3)cc2)cc(OCC)c1OCC
35	1.2%	COc1ccccc1NC1=NC(C)(C)N=C(N)N1
36	3.98µM*	CC(=O)c1ccc(N=C2C(=O)Nc3ccccc32)cc1
37	-11.3%	CC(=O)N1CCc2c(sc3c2c(=O)n(-c2ccccc2C)c(=O)n3CC(=O)Nc2ccccc2)C1
38	-1.4%	O=C(C1=C(O)C(=O)N(CC2CCCO2)C1c1ccc(Cl)cc1Cl)c1ccco1 (stereo unspecified)
39	-1.7%	CCCC(=O)O[C@]1(C(=O)CO)CC[C@H]2[C@@H]3CCC4=CC(=O)CC[C@]4(C)[C@H]3[C@@H](O)C[C@@]21C
40	8.7%	Cc1ccc(S(=O)(=O)N2CCCC(C(=O)NC3CCCC3)C2)cc1 (stereo unspecified)
41	-10.2%	O=C1c2ccccc2C(=O)N1/N=C/c1ccc(Oc2ccc([N+](=O)[O-])cn2)cc1
42	2.0%	CCOc1ccc(-c2nnc(-c3ccc(OC)cc3)o2)cc1
43	13.4%	O=C(Nc1ccc(Cl)c(Cl)c1)c1cccnc1
44	-2.6%	COc1cc(/C=N/NC(=O)c2ccc(NC(=O)C3CCCCC3)cc2)ccc1O
45	0.0%	O=C(CCCSc1ccccc1)Nc1cccc(CO)c1
46	2.2%	Cc1cc(C)cc(OCC(=O)N2N=C(C(F)(F)F)CC2(O)C(C)(C)C)c1 (stereo unspecified)
47	20µM*	CCOC(=O)/C(C#N)=C\c1cc(OC)c(OC)cc1[N+](=O)[O-]
48	-27.3%	CC(=O)c1ccc(NC(=S)Nc2ccc3cn[nH]c3c2)cc1
49	0.0%	COCCn1c(SCC(=O)Nc2ccccc2F)nnc1-c1ccoc1C
50	-1.5%	COc1ccc(C(c2sc3nc(C)nn3c2O)N2CCC3(CC2)OCCO3)cc1 (stereo unspecified)

Additional entries
No.	VDR inhibitor	structure
51	-26.5%	O=C1OCCC1Sc1nnc(-c2ccco2)n1-c1ccccc1 (stereo unspecified)
52	8.5%	COc1cccc(C2CC(=O)Nc3c2c(=O)[nH]c2ncnn32)c1 (stereo unspecified)
53	-20.8%	CCOc1ccc(CC(=NCCc2ccccc2)C2=C(O)CC(C)(C)CC2=O)cc1OCC
54	-18.2%	S=C1NCN(Cc2ccccc2)CN1C1CCCCC1
55	u	Cn1c(=S)c2[nH]c(SCCN3CCCC3)nc2n(C)c1=O
56	-2.6%	CCCN(CCC)c1nc(NC2CCN(C(=O)OCC)CC2)nc(OC)n1
57	0.6%	O=C(C1CCN(Cc2ccccc2O)CC1)N1CCN(Cc2ccc3c(c2)OCO3)CC1
58	15.9%	O=C(NCCCO)/C(=C/c1ccc(-c2cccc([N+](=O)[O-])c2)o1)NC(=O)c1ccccc1
59	0.2%	Cc1ccc(Cl)cc1-n1ncc2c(NCc3ccc(F)cc3)ncnc21
60	17.2%	N/C(=N\OC(=O)CCc1ccccc1)c1cccnc1
61	-0.7%	Cc1oc(C)c(C(=O)Nc2ccc(CC(=O)O)cc2)c1C(=O)Nc1ccc(CC(=O)O)cc1
62	9.5%	COc1ccc(C2CC(c3cccs3)=NN2C(=O)CSc2nncs2)cc1OC (stereo unspecified)
63	-7.1%	Cc1ccc2cc(CCNC(=O)C(=O)c3c(C)[nH]c4ccccc34)c(=O)[nH]c2c1
64	2.4%	Cc1ccc(C(=O)C(OC(=O)COc2ccccc2C)c2ccccc2)cc1 (stereo unspecified)
65	3.8%	CC(Sc1nnc(-c2cc3ccccc3o2)n1-c1ccccc1)C(=O)O (stereo unspecified)
66	-6.8%	O=c1ccc(S(=O)(=O)N2CCCC2)cn1Cc1ccc(F)cc1
67	-4.3%	CC1=NN(C(=S)Nc2ccccc2)C(c2ccccc2)C1 (stereo unspecified)
68	-3.9%	Cn1nc(C(=O)OCC(=O)N(Cc2ccccc2)C(C)(C)C)c2ccccc2c1=O
69	-12.8%	CCCCn1c(SCC(=O)Nc2nc(C)cs2)nnc1-c1cccnc1
70	2.5%	Cc1cccc(N2CCN(S(=O)(=O)c3ccc(-c4coc(C)n4)cc3)CC2C)c1 (stereo unspecified)
71	u	CCOCCCNC(=S)NCCCNc1nc2c(C)cc(C)cc2cc1C#N
72	-14.4%	CCCn1c2ccc(F)cc2c2nnc(NN)nc21
73	u	CC1CCc2[nH]c3ccc(C(=O)N4CCCC(C(F)(F)F)C4)cc3c2C1 (stereo unspecified)
74	-16.9%	CCSc1nc2nccnc2c(=O)[nH]1
75	0.7%	Cc1ccc(Nc2c(-c3ccc(C)o3)nc3ccccn23)cc1
76	u	O=S(=O)(NN1CCOCC1)c1cc(Cl)cc(Cl)c1O
77	6.4%	CC1CCc2c(sc3nc(CSc4n[nH]c(N)n4)[nH]c(=O)c23)C1 (stereo unspecified)
78	-2.2%	O=C(Nc1nnc(-c2ccccc2)o1)c1ccc(Cl)cc1
79	-2.8%	CCc1cccc(NC(=O)c2nnn(Cc3ccc(SC)cc3)c2N)c1
80	26.4%	Cc1ccc(SC(C)C(=O)N2CCN(c3ccccc3)CC2)cc1 (stereo unspecified)
81	-13.3%	Cc1ccc(CSCC(=O)NCc2ccc3c(c2)OCO3)cc1
82	5.5%	Fc1ccccc1N1CCN(c2nc3ccccc3c3nc(-c4ccccc4)nn23)CC1
83	10.1%	COC(=O)N1CC(=O)N(OC)C1c1ccc(Cl)cc1Cl (stereo unspecified)
84	5.1%	CCC(C)OC(=O)C1=C(C)NC(=O)NC1c1ccc(F)cc1 (stereo unspecified)
85	31.6µM*	c1cc(SSc2ccncc2)ccn1
86	-8.3%	Cc1ccc(NC(=O)CN(Cc2ccccc2)S(C)(=O)=O)cc1C
87	3.2%	COc1ccc(NCc2cc3cc4c(cc3n(CC(=O)Nc3ccccc3)c2=O)OCO4)cc1
88	16.5%	O=C(/C=C/c1cn(CC(O)CN2CCCCCC2)c2ccccc12)c1cccs1 (stereo unspecified)
89	-6.1%	CC(NC(=O)CN(C1CCCCC1)S(C)(=O)=O)c1ccccc1 (stereo unspecified)
90	5.1%	Clc1ccc(-c2nnc(COc3ncnc4sccc34)o2)cc1
91	-1.9%	N#CCCn1c(=O)cnc2cnc(N3CCNCC3)nc21
92	9.0%	Cc1ccc(-c2nnc(-c3ccc(NC(=O)c4ccco4)cc3)o2)cc1
93	0.6%	CC(C)(C)C(=O)NC(=C(Cl)Cl)P(=O)(O)O
94	21.4%	COc1ccc(CC(=O)Oc2ccccc2C)cc1
95	-4.2%	Cc1ccc2oc(-c3cccc(NC(=O)c4cccc5c(Br)cccc45)c3)nc2c1
96	13.3%	CCOc1ccc(NC(=O)[C@H](C)NC(=O)C2CC(=O)N(c3ccc(OC)cc3)C2)cc1 (stereo partly specified)
97	-11.9%	CCCn1c(N)c(N2CCCCC2)c(=O)n(CC(=O)Nc2ccc(C(C)=O)cc2)c1=O
98	-1.3%	COc1ccc(C(=O)COC(=O)c2cc(S(=O)(=O)N3CCCCC3)ccc2N2CCOCC2)c(OC)c1
99	0.9%	Clc1ccc(-n2ncc3c(NCCN4CCOCC4)ncnc32)cc1
100	-8.9%	Clc1ccc(OCCCCN2CCCCC2)cc1

The results go on.
No.	VDR inhibitor	structure
101	-1.6%	CN(C)CCCN(C(=O)COc1ccc(Cl)cc1)c1nc2cc3c(cc2s1)OCCO3
102	-1.5%	O=C(Cc1cccc(NC(=O)C2CCCN(C(=O)CCc3ccccc3)C2)c1)Nc1cccc(C(=O)N2CCCCC2)c1 (stereo unspecified)
103	-21.6%	Cc1cc(C)nc(N/N=C/c2cn[nH]c2-c2ccccc2)n1
104	-3.8%&7.6%&5.7%&3.1%	N[C@@H](Cc1ccc(O)c(O)c1)C(=O)O
105	-10.3%	Cc1nc(C)c(C(=O)N2CCCC(CCC(=O)NCc3ccc(F)c(F)c3)C2)s1 (stereo unspecified)
106	-8.2%	CCCCOc1ccc(C(=O)Nc2ccc(S(=O)(=O)Nc3nc(C)cc(C)n3)cc2)cc1
107	8.3%	CC1CCc2nc(NC(=O)CN3CCN(Cc4ccc5c(c4)OCO5)CC3)sc2C1 (stereo unspecified)
108	-13.8%	COc1cccc(-n2c(N)c(C(=O)Nc3c(C)n(C)n(-c4ccccc4)c3=O)c3nc4ccccc4nc32)c1
109	-3.0%	COc1cc(C2CC(=O)N(CC(=O)NCc3ccco3)c3ccccc3S2)cc(OC)c1OC (stereo unspecified)
110	13.2%	O=C(Nc1nccs1)c1cc2c(s1)CCCCC2
111	10.4%	CCCCN(CC)C(=O)c1ccc(Cl)c(Cl)c1
112	-4.0%	Cc1nc(C)c(C(=O)OCC(=O)NCCc2ccc(F)cc2)s1
113	0.3%	COc1ccc(CCNC(=O)CCNC(=O)N2CC(=O)Nc3ccccc32)cc1OC
114	-3.0%	Cc1cccc(C)c1NC(=S)N(CCN(C)C)C(C)c1ccccn1 (stereo unspecified)
115	u	O=C(NCCO)c1cc2cc(Cl)cc(Cl)c2oc1=O
116	3.0%	CN(C)S(=O)(=O)c1ccc(N2CCCC2=O)c([N+](=O)[O-])c1
117	-14.3%	CCOc1cc(C=NNC(=O)c2cccc(S(=O)(=O)N3CCCC3)c2)ccc1O

Among those listed so far, 13 have an NH in an aromatic ring.
No.	VDR inhibitor	structure
15	-20.8%	CN(Cc1nc2ccccc2c(=O)[nH]1)C(=O)c1cc(C2CC2)nn1-c1ccccc1
18	-4.0%	O=S(=O)(c1cccc(-c2n[nH]c(=S)n2C2CCCC2)c1)N1CCOCC1
20	-10.6%	COc1ccc(C(=O)COC(=O)c2n[nH]c3ccccc23)c(OC)c1
25	10.8%	Cc1ccc(NC(=O)c2nc[nH]c2C(=O)N[C@@H](CCCCNC(=O)OC(C)(C)C)C(=O)OC(C)(C)C)cc1
29	-2.9%	CC1CCCC(C)N1C(=O)COC(=O)c1ccc[nH]c1=O (stereo unspecified)
48	-27.3%	CC(=O)c1ccc(NC(=S)Nc2ccc3cn[nH]c3c2)cc1
52	8.5%	COc1cccc(C2CC(=O)Nc3c2c(=O)[nH]c2ncnn32)c1 (stereo unspecified)
55	u	Cn1c(=S)c2[nH]c(SCCN3CCCC3)nc2n(C)c1=O
63	-7.1%	Cc1ccc2cc(CCNC(=O)C(=O)c3c(C)[nH]c4ccccc34)c(=O)[nH]c2c1
73	u	CC1CCc2[nH]c3ccc(C(=O)N4CCCC(C(F)(F)F)C4)cc3c2C1 (stereo unspecified)
74	-16.9%	CCSc1nc2nccnc2c(=O)[nH]1
77	6.4%	CC1CCc2c(sc3nc(CSc4n[nH]c(N)n4)[nH]c(=O)c23)C1 (stereo unspecified)
103	-21.6%	Cc1cc(C)nc(N/N=C/c2cn[nH]c2-c2ccccc2)n1
